From PubChem BioAssay
LASV entry inh = qHTS for Inhibitors of binding or entry into cells for Lassa Virus; Lassa virus pseudotype entry inhibition, cell reporter; control for the full effect not named in the record; Potency, µM (doses to about 37.9 µM), inactives show at the top dose activity change, negative = inhibition, hits mostly inhibitors; AID 540256, 2011; 300,000 tested, 1.2% active; active means well fitted inhibition curve with a large enough effect; inconclusive means small, poorly fitted or top-dose-only effect, or effect the other way; inactive means flat fitted curve, though single readings scatter; tested in HEK293 cells; also: % is scaled to controls: 0 for no effect and ±100 for the full control effect; nearly all actives have a fitted effect of over 50% in size; luciferase read-out
2A StopGo = High Throughput Screening for Foot and Mouth Disease Virus Antivirals; 410,000 tested, 1.2% active; Potency, µM (highest dose often 57.9 µM), for inactives: at the top dose signal change, negative = less light; human cells with a luciferase reporter of 2A StopGo recoding; control for the full effect not named in the record; active = well fitted falling curve with a large enough effect; inconclusive = small, poorly fitted or top-dose-only effect; inactive = no such curve, though single readings can be large or run the other way; tested in HEK293T cells; also: % is scaled to controls: 0 for no effect and ±100 for the full control effect; nearly all actives have a fitted effect of over 45% in size; luciferase light after 4 h
SARS PLP yeast = qHTS of Yeast-based Assay for SARS-CoV PLP | S. cerevisiae expressing SARS-CoV PLpro, growth rescue; control for the full effect not named in the record | Potency, µM (highest dose often 32.9 µM), for inactives: at the top dose activity, positive = growth rescue | 330,000 tested, 0.19% active | AID 485353, 2010; active means well fitted rising curve with a large enough effect; inconclusive means small, poorly fitted or top-dose-only effect; inactive means no such curve, though single readings can be large or run the other way; also: 0% is about no effect; nearly all actives have a fitted effect of over 55% in size; growth read by luminescence after 48 h
MARV entry inh = qHTS for inhibitors of binding or entry into cells for Marburg Virus; Marburg virus pseudotyped entry inhibition, cell reporter; control for the full effect not named in the record; about a third of the inactives were read at about 46 µM; Potency, µM (series often up to 37.8 µM), for the others: at the top dose activity change, negative = inhibition, usual class: inhibitors; 300,000 tested, 1.8% active; AID 540276, 2011; active = well fitted inhibition curve with a large enough effect; inconclusive = small, poorly fitted or top-dose-only effect, or effect the other way; inactive = flat fitted curve, though single readings scatter; tested in HEK293 cells; about a fifth of its hits are not listed in these tables; also: % is scaled to controls: 0 for no effect and ±100 for the full control effect; luciferase read-out
NS1 function inh = qHTS Assay for Inhibitors of Influenza NS1 Protein Function | S. cerevisiae slowed by influenza A NS1, growth recovery by OD600 | Potency, µM (top dose mostly 46.1 µM), for inactives: at the top dose activity, positive = more growth | 270,000 tested, 0.4% active; active means well fitted rising curve with a large enough effect; inconclusive means small, poorly fitted or top-dose-only effect; inactive means no such curve, though single readings can be large or run the other way; also: nearly all actives have a fitted effect of over 50% in size
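In this qHTS, NS1 from influenza A is expressed in budding yeast, where it slows growth. Cells are switched from glucose to 2% galactose medium (pH 6.0, -URA), treated with compound, and growth recovery is read at OD600.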
Cruzain inh Det = qHTS Assay for Promiscuous and Specific Inhibitors of Cruzain (with detergent); purified cruzain, Z-FR-AMC fluorescence, 0.01% Triton; Potency, µM, for the others: max response, negative = inhibition, actives largely listed as inhibitors; 200,000 tested, 0.43% active;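 also: plate controls were neutral wells for no effect and buffer without enzyme for full effect; nearly all actives have a fitted effect of over 40% in size; top concentration of the series not given in the record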
Target sequence (P25779 123-467 limits assumed): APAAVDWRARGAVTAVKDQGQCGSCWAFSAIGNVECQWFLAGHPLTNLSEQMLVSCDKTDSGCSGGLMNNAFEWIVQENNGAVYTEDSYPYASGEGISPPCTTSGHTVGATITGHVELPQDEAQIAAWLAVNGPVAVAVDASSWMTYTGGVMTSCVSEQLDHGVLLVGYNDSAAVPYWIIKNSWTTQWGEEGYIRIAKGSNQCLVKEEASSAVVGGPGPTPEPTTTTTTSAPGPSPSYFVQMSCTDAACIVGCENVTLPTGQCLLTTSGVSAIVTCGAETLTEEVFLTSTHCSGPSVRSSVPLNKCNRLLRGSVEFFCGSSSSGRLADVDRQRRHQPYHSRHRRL
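Sodium acetate buffer (100 mM, pH 5.5) containing 5 mM DTT and 0.01% Triton X-100 hosted 1.5 nM cruzain and test compound for 15 min at room temperature. Cleavage of 2 uM Z-FR-AMC was then tracked by fluorescence.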
RE007 growth inh = qHTS Assay for Inhibitors of the HIV-1 protein Vpr. S. pombe RE007 Vpr strain, BacTiter-Glo ATP luminescence, 24 h; control for the full effect not named in the record. Potency, µM (titrated, usually from 92.2 µM), for inactives: top-dose activity change, negative = less growth. 360,000 tested, 0.21% active. AID 651644, 2012; active = well fitted falling curve with a large enough effect; inconclusive = small, poorly fitted or top-dose-only effect; inactive = no such curve, though single readings can be large or run the other way;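 also: % is scaled to controls: 0 for no effect and ±100 for the full control effect; nearly all actives have a fitted effect of over 50% in size; the assay follows cell death caused by Vpr and the record does not say whether a fall means rescue or toxicity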
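Fission yeast strain RE007, carrying one chromosomally integrated HIV-1 vpr copy, was seeded at OD 0.01 in PMG+AL medium with 23 nL pinned compound. After 24 h at 30 °C and 99% humidity, viability was read by BacTiter-Glo luminescence.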
Cruzain inh noDet = qHTS Assay for Promiscuous and Specific Inhibitors of Cruzain (without detergent). Cruzipain (Trypanosoma cruzi), P25779. purified cruzain, Z-FR-AMC fluorescence, no detergent. Potency, µM, without a hit: max response, negative = inhibition, hits mostly inhibitors. 200,000 tested, 2.3% active;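 also: plate controls were enzyme without inhibitor for no effect and buffer without enzyme for full effect; nearly all actives have a fitted effect of over 40% in size; top concentration of the series not given in the record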
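Detergent-free condition (0.00005% Triton X-100) in acetate buffer pH 5.5 with DTT. 1.5 nM enzyme and compound were pre-mixed 15 min, then 2 uM Z-FR-AMC substrate added; reaction progress from fluorescence change between first and third reads (60 s).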
* marks the source's active call; other numbers are inactive results; ? = inconclusive; nt = no result given; & = joins results of further samples; [ ] = dose if it differs, or a comment. Unless noted, calls follow the shape of the dose curve; as a rule, active = well fitted curve in the direction sought with a large enough effect; inconclusive = small, poorly fitted or top-dose-only effect, or another doubt; inactive = no such curve, though single readings can be large; an effect the other way counts as inactive or inconclusive. Potency is read from the fitted curve at half-maximal effect.

SMILES | LASV entry inh | 2A StopGo | SARS PLP yeast | MARV entry inh | NS1 function inh | Cruzain inh Det | RE007 growth inh | Cruzain inh noDet
N=c1sccn1CC(=O)Nc1ccc2c(c1)CCC2 | 17% | -12% | 1% | ? | -1% | -1.7% | 16% | 8%
COc1ccc(CNC(=O)COC(=O)Cc2ccc(Br)cc2)cc1 | -13%[46.1 µM] | -17% | 11% | ? | nt | nt | -19% | nt
CS(=O)(=O)N(Cc1ccccc1)c1ccc(C(=O)Nc2ccc3c(c2)OCO3)cc1 | -14% | ? | 21% | ? | 14% | -1.4% | -6% | -1%
COc1ccccc1NS(=O)(=O)c1cc(NC(=O)c2cc(F)c(F)c(F)c2F)ccc1N1CCOCC1 | -14%[46.1 µM] | 71%[activator] | 0% | ? | nt | nt | 3% | nt
COCCCNC(=O)c1ccc2c(c1)CCN2S(C)(=O)=O | 21% | 14% | nt | 15% | 5% | 1.0% | 0% | -6%
Cn1c(=O)c2c(nc(Oc3ccccc3Br)n2C)n(C)c1=O | 10%[46.1 µM] | -10% | 2% | 2%[46.1 µM] | -6% | nt | 0% | nt
CCCc1cc(C(=O)Cc2ccc(F)cc2)c(O)cc1O | -7% | -11% | -35% | 11%&11% | -30% | -8.7% | ? | -2%
COc1ccccc1N1CCN(CCN(C(=O)c2ccc(F)cc2)c2ccccn2)CC1 | nt | nt | nt | nt | -3% | -1.7% | -11%[18.4 µM] | -2%
COc1ccc(-n2nc(C(=O)NCC(=O)N3CCN(c4ccccc4OC)CC3)c3ccccc3c2=O)c(OC)c1 | 23%[46.1 µM] | 9% | -2% | -3%[46.1 µM] | -5% | nt | 2% | nt
COc1cccc(-n2c(C)nnc2SCC#N)c1 | 12% | -16% | 2% | 5% | 1% | -0.3% | -9% | -6%
CCOc1ccc(-c2nnc(N3CCOCC3)c3ccccc23)cc1 | nt | -12% | -1% | nt | -13% | nt | 5% | nt
CSc1cccc(NC(=O)CC(C)n2ccnc2)c1 (stereo not given) | 0%[46.1 µM] | -2% | 1% | 16%[46.1 µM] | 2% | nt | -5% | nt
CC(=O)Nc1ccc(S(=O)(=O)NCC2CCC(C(=O)NCCC3=CCCCC3)CC2)cc1 (stereo not given) | -9% | nt | 12% | 9% | -6% | 4.2% | 5% | 1%
N#Cc1nc(-c2ccc([N+](=O)[O-])cc2)oc1N1CCCCC1 | ? | 10% | 0% | 30%[46.1 µM] | 3% | nt | 0% | nt
O=C(NCc1ccccc1F)C(=O)NCC1CCCN1S(=O)(=O)c1ccccc1 (stereo not given) | -15% | -2% | 2% | -5%[46.1 µM] | nt | nt | -2% | nt
O=S(=O)(c1cccc(-c2nn3c(-c4ccncc4)nnc3s2)c1)N1CCOCC1 | nt | nt | 8% | -6% | -4% | -2.9% | nt | 11%
CCOC(=O)c1ccc(NS(=O)(=O)c2ccc(SC)cc2)cc1 | 23% | 6% | -9% | ? | nt | -3.4% | -21% | -13%
COc1ccc(NC2c3ccccc3C(=O)N2c2cccnc2)cc1Cl (stereo not given) | 1% | -8% | 2% | -1% | -15% | -1.1% | 14% | 0%
COc1ccc(-c2ccc(-c3nnn(CC(C)=O)n3)cc2)cc1 | 6% | 24% | -6% | 0% | 4% | -0.5% | 1% | 0%
O=C(NCc1ccc2c(c1)OCO2)c1nn2cccnc2c1Cl | -6% | 6% | nt | 26% | -13% | 4.5% | 7% | -5%

The closing 6 compounds of the section before open the next one:
SMILES | LASV entry inh | 2A StopGo | SARS PLP yeast | MARV entry inh | NS1 function inh | Cruzain inh Det | RE007 growth inh | Cruzain inh noDet
O=C(NCc1ccccc1F)C(=O)NCC1CCCN1S(=O)(=O)c1ccccc1 (stereo not given) | -15% | -2% | 2% | -5%[46.1 µM] | nt | nt | -2% | nt
O=S(=O)(c1cccc(-c2nn3c(-c4ccncc4)nnc3s2)c1)N1CCOCC1 | nt | nt | 8% | -6% | -4% | -2.9% | nt | 11%
CCOC(=O)c1ccc(NS(=O)(=O)c2ccc(SC)cc2)cc1 | 23% | 6% | -9% | ? | nt | -3.4% | -21% | -13%
COc1ccc(NC2c3ccccc3C(=O)N2c2cccnc2)cc1Cl (stereo not given) | 1% | -8% | 2% | -1% | -15% | -1.1% | 14% | 0%
COc1ccc(-c2ccc(-c3nnn(CC(C)=O)n3)cc2)cc1 | 6% | 24% | -6% | 0% | 4% | -0.5% | 1% | 0%
O=C(NCc1ccc2c(c1)OCO2)c1nn2cccnc2c1Cl | -6% | 6% | nt | 26% | -13% | 4.5% | 7% | -5%
COc1ccc(/C=N/OCC(=O)N2CC3(C)CC2CC(C)(C)C3)cc1 (stereo not given) | ? | nt | -2% | -21% | -59% | 6.4% | 0% | -5%
NC1=NS(=O)(=O)NC1c1cccc(F)c1 (stereo not given) | -2%[46.1 µM] | 6% | 1% | 1%[46.1 µM] | nt | nt | 21% | nt
Nc1nc2n(n1)C(c1ccccc1Cl)CC(c1ccc(F)cc1)N2 (stereo not given) | nt | -6% | 0% | nt | 11% | -5.7% | -4% | -20%
CN(c1ccc(C(=O)NCCC2=CCCCC2)cc1)S(C)(=O)=O | ? | -11% | nt | -15% | ? | 2.6% | 15% | 6%
Cc1cc(=O)n2nc(N3CCCC(C(=O)NCc4ccco4)C3)sc2n1 (stereo not given) | 15% | -15% | 6% | -6% | 4% | -0.4% | 11% | -7%
CCc1ccc(/C=C2/C(=O)NC(=O)N2C(C)=O)cc1 | -6% | 4% | 2% | 9% | 3% | nt | 11% | nt
COc1cccc(NC(=O)Cn2nnc(-c3nc(-c4ccccc4)no3)c2N)c1 | 3%[46.1 µM] | 18% | nt | nt | nt | -1.5% | nt | ?
CCCCNC(=S)NC(=O)c1ccccc1Br | 5% | 36%[activator] | 11µM* | 12% | -13% | -6.5% | 0% | -8%
CN(Cc1cnccn1)C(=O)CC1C(=O)NCCN1Cc1cccc(Oc2ccccc2)c1 (stereo not given) | nt | -20% | -1% | nt | -2% | nt | 10% | nt
COc1ccc(Cn2c3nc4ccccc4nc3c3c(=O)n(Cc4ccco4)c(C)nc32)cc1 | nt | nt | 2% | nt | ? | -11% | nt | 25%
Cn1nnnc1SCC(=O)Nc1ncc(C(F)(F)F)cc1Cl | ? | 2% | -10% | -1% | nt | nt | -9% | nt
C=CCn1c(=O)c2ccccc2n2c(SC(C)C(N)=O)nnc12 (stereo not given) | -8%[46.1 µM] | 1% | -2% | 7%[46.1 µM] | 5% | nt | 6% | nt
CC1CN(C(=O)c2cc3cc(Cl)cc(Cl)c3oc2=O)CC(C)O1 (stereo not given) | 8% | -16% | -3% | 2% | -2% | -2.8% | 3% | -18%
O=C(Nc1ccc2oc(-c3ccncc3)nc2c1)c1ccc(F)cc1 | -5% | -26% | -1% | -6% | nt | nt | -27% | nt
COc1ccc(S(=O)(=O)N2CCCCCC2)cc1C(=O)N(C)Cc1ccc(OC)c(OC)c1OC | -28% | -8% | -1% | -4% | nt | nt | 13% | nt
CC1CC(C)CN(CCCNC(=O)Cn2cccc2C(=O)c2ccccc2)C1 (stereo not given) | nt | -2% | 3% | nt | -2% | nt | -10% | nt
O=C(/C=C/c1ccco1)Nc1cccc(C(=O)Nc2ccccc2C(=O)O)c1 | nt | 2% | 1% | nt | 12% | nt | 5% | nt
Cc1ccc(C(=O)N2CCN(c3ccc(F)cc3)CC2)cc1NC(=O)c1nsc2ccccc12 | 15%[46.1 µM] | 0% | nt | nt | nt | 1.5% | nt | -1%
Cc1ccccc1C(=O)Nc1ccc(N2CCCCCC2)cc1 | ? | 17% | -1% | ? | -9% | nt | -16% | nt
COc1cc2c(cc1OC)C(c1ccc([N+](=O)[O-])cc1)NC(=O)C2 (stereo not given) | nt | -14% | 1% | nt | 3% | nt | -11% | nt
CCc1cccc(NC(=O)C2CCN(S(=O)(=O)c3cccs3)CC2)c1 | -5% | ? | 0% | -1% | -6% | -1.7% | 0% | -10%
O=C(CN1CCN(c2ccccc2O)CC1)NCCCc1ccccc1 | ? | -27% | -3% | -5%[46.1 µM] | nt | nt | 2% | nt
COc1ccc(C2C=C(c3ccc(F)cc3)NC(=S)N2)cc1OC (stereo not given) | nt | 1% | 0% | nt | 0% | nt | 11% | nt
COC(=O)NCC(C)OC(=O)Nc1cccc(Cl)c1 (stereo not given) | 19% | 6% | 2% | ? | -9% | 0.2% | 0% | -3%
O=C1C(=O)N(CCN2CCCCC2)c2ccccc21 | ? | 6% | -11% | -12% | 12% | -1.1% | 1% | 1%
Cc1ccc(S(=O)(=O)c2nc(-c3ccccc3)oc2NCCCN2CCOCC2)cc1 | -15% | -7% | -8% | 2% | 4% | nt | 7% | nt
O=C(CSc1nccc(=O)[nH]1)NC1CCCCCCC1 | 1% | -1% | 2% | 11% | nt | nt | 3% | nt
COc1ccc2sc(N(Cc3cccnc3)C(=O)CCc3ccccc3)nc2c1 | -31%[46.1 µM] | 0% | nt | nt | nt | 2.2% | nt | 1%
COC(=O)c1ccc(CSc2nc3c(cnn3-c3ccc(Cl)cc3)c(=O)[nH]2)o1 | ? | -12% | -4% | -1% | 2% | 2.2% | 0% | -11%
Cc1c(Nc2nc3ccccc3nc2NS(=O)(=O)c2cccc(Cl)c2)c(=O)n(-c2ccccc2)n1C | ? | -17% | 18% | 1%&4% | 8.9µM* | -8.4% | -2% | ?

Limited to SARS PLP yeast (two entries from above):
Compound	SARS PLP yeast
CCc1cccc(NC(=O)C2CCN(S(=O)(=O)c3cccs3)CC2)c1	0%
O=C(CN1CCN(c2ccccc2O)CC1)NCCCc1ccccc1	-3%
